KCNQ2 block = KCNQ2 channel blockers in CHO-K1 cells – cell-based, FluxOR thallium flux, B-score, primary screen (AID 2156) | B-score at 10 µM | 20 min; stronger effect = lower value; only compounds with negative scores are shown here; some inactives read as strong as hits | 310,000 tested, 1.1% active | O88943;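 active = fluorescence ratio B-score at most minus 3 library SDs, with starting brightness B-score within 2 library SDs, cut at about -5.5 in these data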
Target sequence (O88943 whole entry, looked up): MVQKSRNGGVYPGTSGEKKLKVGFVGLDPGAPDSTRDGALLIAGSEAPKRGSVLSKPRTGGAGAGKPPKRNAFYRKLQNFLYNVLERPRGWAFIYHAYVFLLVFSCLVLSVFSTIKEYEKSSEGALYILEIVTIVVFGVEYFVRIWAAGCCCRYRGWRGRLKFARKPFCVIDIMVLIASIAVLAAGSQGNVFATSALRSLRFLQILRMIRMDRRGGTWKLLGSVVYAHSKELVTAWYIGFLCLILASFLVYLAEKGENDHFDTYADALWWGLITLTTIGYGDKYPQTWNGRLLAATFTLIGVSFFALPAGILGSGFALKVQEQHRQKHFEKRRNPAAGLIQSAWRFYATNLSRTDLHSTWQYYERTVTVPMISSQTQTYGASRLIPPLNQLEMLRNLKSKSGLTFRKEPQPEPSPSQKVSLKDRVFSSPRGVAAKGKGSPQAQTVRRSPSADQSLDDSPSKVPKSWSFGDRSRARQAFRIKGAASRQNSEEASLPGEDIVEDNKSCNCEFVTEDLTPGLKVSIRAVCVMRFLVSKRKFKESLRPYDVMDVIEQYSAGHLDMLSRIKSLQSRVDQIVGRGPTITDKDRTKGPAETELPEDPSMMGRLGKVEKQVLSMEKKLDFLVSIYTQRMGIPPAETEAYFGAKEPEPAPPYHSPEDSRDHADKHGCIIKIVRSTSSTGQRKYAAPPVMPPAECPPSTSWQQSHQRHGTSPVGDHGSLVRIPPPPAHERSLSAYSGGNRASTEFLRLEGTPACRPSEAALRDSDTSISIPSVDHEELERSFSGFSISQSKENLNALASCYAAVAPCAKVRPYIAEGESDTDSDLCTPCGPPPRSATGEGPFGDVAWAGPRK
KCNQ2 block baseline = also measured in KCNQ2 block; calls as there; B-score; measured here: initial fluorescence intensity artifact check;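 brightness before thallium and not channel activity; 0 = typical well and far values either way flag optical interference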
Active calls of the source: *; i = inactive. Not all compounds are listed; the hit share may differ from the screen's.

item	molecule	KCNQ2 block	KCNQ2 block baseline
1	CCOC(=O)/C(C#N)=C1\C=CN(C)C(C)=N1	i	0.06
2	CC(=O)c1cccc(N(CC(=O)Nc2ccc(S(=O)(=O)N3CCCC3)cc2)S(C)(=O)=O)c1	i	-1.1
3	COc1ccc(-c2oc3ncn4nc(COc5ccccc5)nc4c3c2-c2ccc(OC)cc2)cc1	i	-4.1
4	CCCCC(C(=O)NC1CCCC1)N(C(=O)c1snc(C(N)=O)c1N)c1ccc(C)cc1 (stereo not given)	i	1.2
5	CCOC(=O)c1nc(C)n(-c2ccc([N+](=O)[O-])cc2)n1	i	0.78
6	CCCn1cnc2cc(NCc3cccs3)ccc21	i	0.05
7	COC(=O)c1ccccc1NC(=O)c1cnn2c(C)cc(C)nc12	i	-1.3
8	CCN(CC)c1ccc(NC(=O)/C=C\c2ccccc2Cl)cc1	i	0.12
9	COc1ccc(CC(=O)N(C)Cc2ccc(Cl)cc2)cc1S(=O)(=O)N1CCOCC1	i	-1.6
10	Cc1nc(-c2ccc(C(F)(F)F)cc2)sc1C(=O)NN	i	1.2
11	CC1C(=O)N2CCCc3cc(NS(=O)(=O)c4ccccc4)cc1c32 (stereo not given)	i	1.2
12	O=C(Cc1nnc(NC(=O)Nc2ccc(F)cc2)s1)NCc1ccccc1	i	-0.02
13	Cc1ccc(S(=O)(=O)c2c(N)n(Cc3ccco3)c3nc4ccccc4nc23)cc1	i	2.9
14	CCC(C(=O)NCC1CCCO1)N(C(=O)c1snc(C(N)=O)c1N)c1ccc(Cl)cc1 (stereo not given)	i	-1.6
15	Cc1ccc(NC(=O)C(c2ccccc2)c2ccccc2)c(O)c1	i	-1.4
16	Cc1cccc(C(=O)N2CC3(C)CC2CC(C)(C)C3)c1 (stereo not given)	i	-0.74
17	CN(CC(=O)NNC(=O)CNC(=O)c1ccccc1Cl)S(=O)(=O)c1ccc(Cl)cc1	i	0.17
18	O=C(Oc1cccc(N2C(=O)C3C4c5ccccc5C(c5ccccc54)C3C2=O)c1)c1ccco1 (stereo not given)	i	-0.29
19	COc1ccc(OCCOCCOc2ccc(C)cc2[N+](=O)[O-])cc1	i	1.6
20	CCOC(=O)Nc1ccc2c(CN3C(=O)NC(CC)(CC)C3=O)cc(=O)oc2c1	i	0.64
21	Cc1ccc(S(=O)(=O)C(NC(=O)c2ccccc2)=C(Cl)Cl)cc1	i	0.04
22	CCc1ccc(NC(=O)CSc2nc3[nH]ncc3c(=O)[nH]2)cc1	i	0.86
23	COc1ccc(C2=CSC3=NCCN23)cc1Br	i	0.06
24	Cc1cc(C)n2nc(C(=O)OCCOc3ccc(F)cc3)nc2n1	i	0.62
25	CCCC1C2C(=O)N(c3ccccc3)C(=O)C2ON1c1ccccc1 (stereo not given)	i	-0.37
26	COc1ccc(S(=O)(=O)N2CCOC23CCN(S(=O)(=O)c2ccc(Cl)cc2)CC3)cc1	i	1.1
27	COC(=O)c1ccc(NC(=O)CSc2nnc(COc3ccc4c(c3)CCCC4)o2)cc1	i	-1.8
28	CCOc1cc(OCC)nc(S(C)(=O)=O)n1	i	-0.3
29	CC1CN(Cc2nc3c(c(=O)n(C)c(=O)n3C)n2Cc2cccc(Cl)c2)CC(C)O1 (stereo not given)	i	0.01
30	Cc1ccc(-c2nnn3c2nc(Cl)c2ccccc23)cc1	i	0.37
31	O=[N+]([O-])c1cc(/C=N/O)ccc1SCc1ccccc1	i	0.67
32	CCN1CCN(C(=O)Cn2ncc3ccsc3c2=O)CC1	i	-1.1
33	CCn1c(N2CCN(C(=O)/C=C/c3ccccc3)CC2)nc2ccccc21	i	-0.78
34	CC1CCN(S(=O)(=O)c2ccc(NC(=O)[C@@H]3CCCC[C@@H]3C(=O)O)cc2)CC1	i	-0.69
35	O=C(/C=C/c1cccc([N+](=O)[O-])c1)NCCSCc1cccc(Cl)c1	i	-0.14
36	O=S(=O)(Nc1ccccc1N1CCCCC1)c1ccccc1	i	0.19
37	O=C(O)/C=C\c1cccc(-n2nnnc2SCc2ccccc2F)c1	i	-0.02
38	NNC(=S)Nc1cccc(-c2n[nH]c(=S)o2)c1	i	0.63
39	COc1ccccc1NC(=S)NCCc1ccccc1	i	1.6
40	CCc1ccc(NC(=O)COc2ccc3c(c2)OCO3)cc1	i	0.01
41	Cc1cc(C)n(CC2CC(=O)N(c3ccccc3)C2=O)n1 (stereo not given)	i	0.07
42	COc1ccc2c(c1)c(C(=O)N/N=C/c1ccc(Br)cc1)c(C)n2C	i	0.87
43	C=Cn1cc[n+](CC(=O)c2ccc(C)cc2)c1	i	0.93
44	OC1CCN(C(c2ccc3ncccc3c2)c2nnnn2C2CCCCC2)CC1 (stereo not given)	i	-0.9
45	CCC(=O)c1ccc(OCC(=O)OC(C)C(=O)N2CCc3ccccc32)cc1 (stereo not given)	i	0.01
46	CCSc1nnc(NC(=O)C2CCCN(S(=O)(=O)c3cnc[nH]3)C2)s1 (stereo not given)	i	-0.43
47	Cc1cc2nc3n(c2cc1C)CC1CC(C(=O)NCc2cccc(Br)c2)N(C)C31 (stereo not given)	i	-0.14
48	N#Cc1ccccc1OCC(=O)NC(=O)NCc1ccco1	i	-1.5
49	Cc1ccc(COc2ccc(CNCCCN3CCCCCC3=O)cc2)cc1	i	0.41
50	Nc1ccc(S(N)(=O)=O)cc1N	i	1.6

Reprinted at random: two entries already listed, in no set order.
item	molecule	KCNQ2 block	KCNQ2 block baseline
44	OC1CCN(C(c2ccc3ncccc3c2)c2nnnn2C2CCCCC2)CC1 (stereo not given)	i	-0.9
34	CC1CCN(S(=O)(=O)c2ccc(NC(=O)[C@@H]3CCCC[C@@H]3C(=O)O)cc2)CC1	i	-0.69

(next part)
item	molecule	KCNQ2 block	KCNQ2 block baseline
51	CCCc1ccc(OCc2ccc(C(=O)Nc3cccc(C)n3)o2)c(OC)c1	i	2.6
52	O=C1CC[C@@H](CN(Cc2ccccc2)Cc2cn[nH]c2-c2cc3ccccc3o2)N1	i	-0.82
53	COCCCNC(=S)NNC(=O)c1ccc(S(=O)(=O)N2CCC(C)CC2)cc1	i	-0.02
54	C=CCOn1c(=O)c(-c2ccc(C)cc2)[n+]([O-])c2ccccc21	i	-1.9
55	COc1ccccc1NC(=O)C(C)OC(=O)CCCN=C1NS(=O)(=O)c2ccccc21 (stereo not given)	i	0.41
56	Cc1c(C(=O)N/N=C/c2cccc(O)c2)nnn1-c1nonc1N	i	-1.8
57	COc1ccc([C@H]2[C@H](C(C)=O)N3N=Cc4ccccc4C3C23C(=O)OC(C)(C)OC3=O)cc1 (stereo not given in full)	i	1.1
58	CCOc1ccc2[nH]c(=O)c(CN(CCCO)S(=O)(=O)c3ccc(F)cc3)cc2c1	i	0.71
59	Cn1nc(C(F)(F)F)c(-c2cccc(C(F)(F)F)c2)c1NC(=O)c1nccnc1C(=O)O	i	0.41
60	CCN(CC)C(=O)COc1ccc2oc(C)c(C(=O)OC(C)C)c2c1	i	0.68
61	CC(=O)c1nn(-c2cccc(Br)c2)cc1C(=O)c1cccc2ccccc12	i	-1.3
62	CCCNC(=O)c1nc(C)n(-c2cc(Cl)ccc2Cl)n1	i	-1.5
63	O=C(Nc1cccc(-n2cnnn2)c1)c1ccoc1COc1ccc(Cl)cc1	i	1.2
64	COc1ccc(CCC(=O)NCc2ccccc2OC)cc1	i	-0.27
65	COc1ccc(C(=O)Oc2c(OC)cc(C(=S)N3CCOCC3)cc2OC)cc1OC	i	0.51
66	CC(=O)NS(=O)(=O)c1ccc(N=c2ssc3c2-c2cc(C)ccc2NC3(C)C)cc1	i	0.16
67	CC1CCCCN1C(=O)COC(=O)c1n[nH]c2ccccc12 (stereo not given)	i	0.02
68	O=C(Nc1ccccc1F)C1CCN(C(=O)NC2CCCCC2)CC1	i	0.52
69	Cc1ccc(C(=O)N(C)CC(=O)Nc2cccc(F)c2)cc1S(=O)(=O)N1CCCCC1	i	-0.45
70	CCOc1ccc(Br)cc1C(=O)N/N=C/c1ccccn1	i	0.57

Complete entries, looked up by structure:
`CC(=O)NS(=O)(=O)c1ccc(N=c2ssc3c2-c2cc(C)ccc2NC3(C)C)cc1` is entered as KCNQ2 block = i; KCNQ2 block baseline = 0.16
`CCOc1ccc(Br)cc1C(=O)N/N=C/c1ccccn1` is entered as KCNQ2 block = i; KCNQ2 block baseline = 0.57
`CC1CCCCN1C(=O)COC(=O)c1n[nH]c2ccccc12` (stereo not given) is entered as KCNQ2 block = i; KCNQ2 block baseline = 0.02

Continuation:
item	molecule	KCNQ2 block	KCNQ2 block baseline
71	O=C(CCCOc1ccc(Cl)cc1Cl)Nc1cccnc1	i	-0.09
72	Cc1ccc(-c2nc(S(=O)(=O)c3ccc(C)cc3)c(N3CCOCC3)o2)cc1	i	0.15
73	Cc1ccc(/C(N)=N/OC(=O)c2ccc(F)cc2)cc1	i	-0.04
74	O=C1CCC(=O)N(O)CCCCCNC(=O)CCC(=O)N(O)CCCCCNC(=O)CCC(=O)N(O)CCCCCN1	i	0.8
75	CC(=O)N1CCc2cc(S(=O)(=O)NC(C)c3ccccc3)ccc21 (stereo not given)	i	3
76	COc1cc(C=C(c2nc3ccccc3s2)c2nc3ccccc3s2)ccc1O	-6*	0.04*
77	CCNC(=O)N1CCOCC1	i	-0.8
78	CC(C)C[C@@H](CO)N1CCN(CCc2ccccc2)CCC1=O	i	-1.5
79	COCc1cc(Sc2ccc(Cl)cc2)nc(C)n1	i	-0.07
80	CCOC(=O)c1cc(-c2ccc(/C=C3/C(=O)N(c4ccc(C(=O)O)cc4)N=C3C)o2)ccc1Cl	i	-1.9
81	O=C(OCc1nc2ccc(Cl)cc2n1CCO)c1ccc(O)cc1	i	0.69
82	COC(=O)CNC(=O)COC(=O)/C=C/c1cccs1	i	-0.11
83	CC(C)(C)/C(O)=C/c1nc2ccccc2oc1=O	i	0.15
84	COCc1ccc(C(=O)NC2CCCN(Cc3ccccc3F)C2)o1 (stereo not given)	i	-1.9
85	C#Cc1ccc([C@H]2C=C(C(=O)N3CCOCC3)O[C@@H](OCc3ccc(CO)cc3)C2)cc1	i	0.51
86	CCCCN(C)C(=O)c1ccc2c(c1)N(CC)C(=O)c1ccccc1S2(=O)=O	i	0.85
87	CCN1C(N(C)CCc2cccs2)=N[C@@H](c2ccccc2)C(C(=O)OC)=C1C	i	0.07
88	CCC(=O)N1CCc2cc(S(=O)(=O)CCC(=O)N(C)c3ccc(OC)cc3OC)ccc21	i	0.05
89	Cc1ccc(S(=O)(=O)N2CCN(C(=O)c3ccccn3)CC2)cc1	i	-0.04
90	CCC(C)(C)N(C(=O)CCC(=O)Nc1cc(C)on1)C(C(=O)NC(C)(C)C)c1ccc(OC)cc1 (stereo not given)	i	-1.2
91	COc1ccc(S(=O)(=O)Nc2ccccc2OC)cc1NC(=O)CC1CC2CCC1C2 (stereo not given)	i	-0.03
92	CCNS(=O)(=O)c1ccc(CCC(=O)N2CCCC2)cc1	i	-2.8
93	CCCc1cc(N2CCN(c3ccccn3)CC2)n2nc(C)c(-c3ccccc3)c2n1	i	1.4
94	CCCCc1nc(N2CCOCC2)c(C#N)c2c1COC(C)(C)C2	i	0.37
95	O=C(CCC(=O)N1CCCCC1)Nc1ccc(Cl)c(Cl)c1	i	0.67
96	O=C(C1CCN(CCCc2ccccc2)CC1)N(CCc1ccccc1)Cc1ccccc1	i	-2
97	O=C(C1CCC1)N1CCN(c2cccc(C(F)(F)F)c2)CC1	i	0.72
98	COc1ccccc1CNC(=O)COC(=O)c1n[nH]c2ccccc12	-5.9*	2.1*
99	Cc1cc(Cl)c2oc(C(=O)N(C)CCc3cnn(C)c3)c(C)c2c1	i	-0.15
100	CCOC(=O)Cn1c(CN(Cc2ccccc2)Cc2ccccc2)nc2c1c(=O)[nH]c(=O)n2C	i	-1.5

Entries listed so far that have a tert-butyl group (2):
item	molecule	KCNQ2 block	KCNQ2 block baseline
83	CC(C)(C)/C(O)=C/c1nc2ccccc2oc1=O	i	0.15
90	CCC(C)(C)N(C(=O)CCC(=O)Nc1cc(C)on1)C(C(=O)NC(C)(C)C)c1ccc(OC)cc1 (stereo not given)	i	-1.2

(listing goes on)
item	molecule	KCNQ2 block	KCNQ2 block baseline
101	NCCSSCCN	i	-0.24
102	COc1cc(CN2CCCCC2C(=O)Nc2ccc(Oc3ccccc3)nc2)ccc1O (stereo not given)	i	0.58
103	COc1ccc(/C=C/C(=O)N(Cc2cccs2)C2CCS(=O)(=O)C2)cc1 (stereo not given)	i	0.29
104	CCCCC1(C(=O)OCC)NC(c2ccc(O)cc2)C2C(=O)N(c3ccccc3)C(=O)C21 (stereo not given)	i	-0.54
105	O=C(COC(=O)c1ccccn1)Nc1ccccc1OC(F)F	i	1.6
106	O=C(Nc1ccc2nc3n(c(=O)c2c1)CCCCC3)c1cc([N+](=O)[O-])ccc1F	i	-1.1
107	COc1ccccc1NC(=O)c1ccc(NC(=O)CN(C)Cc2ccccc2F)cc1	i	-0.09
108	COc1ccc(N2C(=O)C(Cl)=C(NCc3ccccc3)C2=O)cc1	i	-3.3
109	O=C(COc1ccccc1Cl)NCCNC(=O)c1cnccn1	i	-0.33
110	C/C(=N\NC(=O)Cn1cc([N+](=O)[O-])cn1)c1ccco1	i	-0.19
111	O=C(NCC(=O)N(c1ccccc1)C(C(=O)NC1CCCCC1)c1cccnc1)c1ccco1 (stereo not given)	i	0.87
112	Cc1cc(CN(C)Cc2ccc(OCC(O)CN(C)Cc3ccccc3)cc2)on1 (stereo not given)	i	-3.2
113	Cc1ccccc1Cn1cc(S(=O)(=O)CC(=O)Nc2nccs2)c2ccccc21	i	1
114	CCc1ccc(NC(=O)C2CCC(CNC(=O)[C@@H]3Cc4ccccc4CN3)CC2)cc1 (stereo not given in full)	i	-2.4
115	CC(C)Cc1ccc(S(=O)(=O)N2CCN(c3ccccn3)CC2)cc1	i	-1.1
116	CC(CNCC1CCCO1)COc1ccccc1 (stereo not given)	i	-1.4
117	C1=C(c2ccccc2)CCN(c2nc3ccccc3n3cnnc23)C1	i	-2.2
118	CC1CC(=S)Nc2ccccc2N1Cc1ccccc1 (stereo not given)	i	-0.03
119	C/C(CC(=O)NCc1ccccc1)=N\NC(N)=S	i	0.53
